# Calb FLC: C. albicans growth inhibition with fluconazole, primary screen, CaCi-2 strain, Alamar Blue fluorescence; C. albicans CaCi-2 (fluconazole-resistant clinical isolate) + fluconazole, 48 h; growth inhibition, % (test concentration not listed); 0.57% of 300,000 active; AID 1979, 2009;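 active = most replicates above 75%; inconclusive = exactly half above 75%; inactive = most below 75%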;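 also: all wells also contain fluconazole at 8 µg/ml as a sub-toxic cotreatment; 0% = median of DMSO wells and 100% = median of geldanamycin control wells; wells of about 8 µL received 7.5 nL stock; the first replicate is given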
# MLL AF4-AF9 inh: inhibitors of AF4 peptide binding to AF9, primary screen, biochemical, AlphaScreen, biotin-AF4 peptide, FLAG-AF9, single point | Protein AF-9 (Homo sapiens), P42568 | inhibition, % at 10 µM | 0.47% of 350,000 active | AID 651704, 2012;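 active = every replicate reaching a set inhibition limit, whatever the replicate mean, cut at about 25% in these data; inconclusive = mean inhibition reaches that limit but some replicates miss it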;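 also: 0% = plate neutral control median and 100% = total signal loss; the record names both 10 and 1 µM as test concentration; the first replicate is given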
# Target sequence (P42568 whole entry, looked up): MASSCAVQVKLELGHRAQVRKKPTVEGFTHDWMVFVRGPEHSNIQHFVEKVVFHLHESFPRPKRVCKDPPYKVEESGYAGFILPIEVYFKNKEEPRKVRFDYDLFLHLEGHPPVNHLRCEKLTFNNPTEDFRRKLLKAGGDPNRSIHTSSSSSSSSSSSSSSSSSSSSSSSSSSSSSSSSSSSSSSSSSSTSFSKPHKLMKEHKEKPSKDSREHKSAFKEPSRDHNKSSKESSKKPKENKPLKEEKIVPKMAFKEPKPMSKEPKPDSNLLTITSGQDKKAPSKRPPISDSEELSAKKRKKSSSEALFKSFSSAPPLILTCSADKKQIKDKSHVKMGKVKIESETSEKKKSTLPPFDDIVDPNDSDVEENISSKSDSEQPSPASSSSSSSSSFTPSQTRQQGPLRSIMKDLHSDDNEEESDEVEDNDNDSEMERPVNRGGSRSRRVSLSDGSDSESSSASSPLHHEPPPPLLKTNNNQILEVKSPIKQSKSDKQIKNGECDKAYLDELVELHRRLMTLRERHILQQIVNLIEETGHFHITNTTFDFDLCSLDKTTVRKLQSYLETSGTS
# T cruzi inh: inhibitors of intracellular T. cruzi growth, primary screen, luminescence, NIH3T3 host cells; T. cruzi beta-gal in NIH3T3, 90 h; inhibition, % (concentration not given with the values); 1.4% of 300,000 active; AID 1885, 2009;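 active = mean inhibition across valid replicates above about 55%, limit read from the data; inconclusive = mean below that limit but half or more replicates reach it; inactive = mean below it, under half of replicates reach it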;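 also: signal also drops with host cell toxicity which is not excluded here; 0% = plate median of DMSO wells and 100% = zero luminescence signal; higher percent means less beta-gal luminescence so fewer parasites; stock transfer was 50 nL into about 50 µL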
# Beta apoptosis: inhibitors of cytokine-induced beta cell apoptosis, primary screen, luminescence; INS-1E cytokine-induced death, ATP luminescence, 48 h; percent of positive-control rescue, neutral wells zero; protection from apoptosis, % (test concentration not listed); 0.8% of 300,000 active; AID 435005, 2010;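 active = all replicates at 75% or more, or half of them and the mean; inconclusive = half reach 75% but not the mean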;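 also: 0% = cytokine-treated negative control wells and 100% = positive control rescue; higher means more ATP so stronger rescue from cytokine killing; wells of about 40 µL received 100 nL stock; the first replicate is given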
# Vif A3G: inhibitors of Vif binding to APOBEC3G peptide, primary screen, biochemical, TR-FRET, GST-Vif 1-94, biotin-A3G peptide, dose response retest (AID 1117319). Virion infectivity factor (Human immunodeficiency virus type 1 group M subtype B (isolate …. TR-FRET GST-Vif / biotin-A3G peptide binding; higher % means a stronger effect; test concentration not given here; strong numbers were not always called active. one-dose inhibition, %; IC50 in µM for titrated hits. 0.57% of 260,000 active;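 active = above the screen mean plus three standard deviations and confirmed in dose response; inconclusive = results disagree or hit not tested in dose response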;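 also: Vif residues 1-94 fused to GST binding biotinylated APOBEC3G peptide 110-148; 0% = full assay without inhibitor and 100% = GST in place of GST-Vif; retest series ran down from 100 µM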
# rRNA inh HTS: reduced GFP signal of wild-type E. coli, primary screen, bacterial rRNA inhibitor project, GFP/RFP fluorescence, OD600, single point | 1.6% of 350,000 active | GFP signal change (wild-type ribosome), % (no concentration beside the values) | AID 720706, 2013 | E. coli WT GFP vs humanized-ribosome RFP mutants, 24 h; stronger effect = lower value; DMSO median 0, no signal -100;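 active = significant combined selectivity score with lowered wild-type GFP, culture density cut under 30%, mutant RFP and density less affected; inactive = any of these conditions unmet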; also: one replicate is shown; some compounds called inactive have numbers as strong as hits
# A1 inh: caspase 3/7 activation in MEF A1-2A-BIM cells, primary screen, A1 inhibitor project, cell-based, luminescence, HTS | Caspase-Glo 3/7 luminescence, 3 h; percent of clofoctol response, vehicle zero | caspase activation, % (test concentration not listed) | 0.066% of 330,000 active | AID 2462, 2010;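 active = over half of replicate activation scores above 10%, or exactly half above 10 with the replicate mean above 10; inconclusive = replicate mean below 10 yet half the replicates above 10; inactive = over half of replicates below 10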;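 also: wells of about 30 µL received 50 nL stock; many hits fall short of the cut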
# RanGTP-Impb inh: inhibitors of RanGTP-importin-beta interaction, primary screen, biochemical, FRET, CFP-Ran, YFP-importin-beta, homogeneous; inhibition, % (no concentration beside the values); Ran GTPase (GTP-bound) - importin-beta complex; cell-free CFP-Ran/YFP-importin-beta FRET ratio; 1.1% of 300,000 active;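 active = most replicates above 15%; inconclusive = exactly half above 15%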;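 also: 0% = DMSO wells and 100% = Ran loaded with GDP instead of GTP; wells of about 40 µL received 100 nL stock; the first replicate is given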
# rRNA inh HTS OD600: second read-out of rRNA inh HTS, no call of its own (marks repeat the call); OD600 change, %; measured here: OD600 growth;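 optical density of the mix in the first replicate; 0 = DMSO median and -100 = no signal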
# rRNA inh HTS RFP: recorded beside rRNA inh HTS, whose call it bears; RFP signal change, %; measured here: RFP humanized mutant strains;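 first replicate; 0 = DMSO median and -100 = no signal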
# Starred values were filed as active, the others as inactive; u = inconclusive; x = not tested or not shown; & = joins results of further samples. Some of the compounds tested (hit frequency here may not be typical).
SMILES,Calb FLC,MLL AF4-AF9 inh,T cruzi inh,Beta apoptosis,Vif A3G,rRNA inh HTS,rRNA inh HTS OD600,rRNA inh HTS RFP,A1 inh,RanGTP-Impb inh
O=[N+]([O-])c1ccc(C2[C@H]3C(c4ccccc4)=NC4(CCCCC4)N23)cc1 (stereo partly drawn),-19,0.0,-3,10,x,2,0,-1.4,0.0,u
CCS(=O)(=O)NCc1nnc2n1-c1ccc(Br)cc1C(c1ccccc1Cl)=NC2,42,x,2,-2,x,5,5,-1.6,0.9,5.1
CCCCCCC(=O)N/N=C/c1c(O)n(C(C)CC)c(=S)[nH]c1=O (stereo not drawn),-23,1.9,x,7,10%,-23*,-11*,0.6*,0.4,0.6
O=c1[nH]c(=S)n(-c2ccccc2)c(O)c1/C=N/N1CCOCC1,u,x,-17,-3,30%,x,x,x,0.4,x
Clc1ccc2c(c1)C(c1ccccc1Cl)=NCc1nnc(N3CCN(CCOc4ccccc4)CC3)n1-2,67,x,44,1,1%,x,x,x,-0.6,3.7
CCCCn1c(N)c(C(=O)NCc2cccs2)c2nc3ccccc3nc21,-2,x,55*,-12,4%,x,x,x,0.2,68*
O=c1c2ccccc2nc(Cc2ccccc2)n1-c1cccc(O)c1,25,3.0,29,8,9%,-38,-39,-7.8,0.4,-0.4
CC(C)CCNC(=O)c1cc(C(=O)c2cc(Br)ccc2O)cn(CCC(C)C)c1=O,-11,1.2,39,8,-7%,8,5,2.4,-0.2,6.2
CCOc1cc2c(cc1OCC)-n1cccc1C(c1ccc(OC(F)F)cc1)NC2 (stereo not drawn),-1,-8.1,24,-1,0%,-5,-35,15,1.5,4.3
CC(C)N1CCN(Cc2ccccc2C(F)(F)F)CC1CCO (stereo not drawn),-1,1.6,26,x,x,10,13,1.9,0.2,2.3
COc1ccc(N=Cc2c(O)n(C)c(=O)[nH]c2=O)cc1,2,-2.5,-7,0,x,0,5,0.2,-1.8,1.4
CCOC(=O)c1nsnc1NCCCl,19,-0.8,-5,x,-7%,12,10,-1.8,0.8,-2.7
O=C(CCc1nnc2ccc(NCc3ccccc3Cl)nn12)N1CCC2(CC1)OCCO2,14,-4.6,-7,-3,0%,-14,-14,1.3,-0.4,-0.1
Nc1ccnn1C1CCNCC1,-2,x,-6,-2,-6%,x,x,x,0.0,2.1
Cc1ccc(-n2c(C)nc3ccccc3c2=O)c(C)c1,3,3.0,-23,-4,9%,2,-1,0.5,1.8,2.3
O=c1c2ccccc2nc(Cc2ccccc2)n1-c1ccccc1,-1,5.2,6,2,-3%,-27,-26,-5.1,1.1,-3.5
CN1C(C(=O)N2CCC3(CC2)OCCO3)=CC(c2ccc(F)cc2)=NS1(=O)=O,10,0.3,-3,-1,x,-2,1,-4.8,-0.3,-1.2
COc1ccc(C(=O)C2CCCN(Cc3ccc(F)cc3F)C2)cc1F (stereo not drawn),-2,0.7,4,-13,x,-14,-11,-0.5,-0.3,-1.0
COCCCN=Cc1c(O)[nH]c(=S)[nH]c1=O,5,1.4,-3,-4,-3%,9,6,-0.1,0.6,u
O=c1[nH]c(=O)n(CCc2ccccc2)c(O)c1C=NC1CC1,-1,-0.7,-12,1,6%,6,8,-1.7,-0.6,3.8
CC(=O)N(C)CC#CCN1CCCC(CO)C1 (stereo not drawn),18,x,-6,-9,x,4,14,-0.9,1.1,4.7
O=C1NC(=O)C(CCc2ccncc2)(CCc2ccccn2)C(=O)N1c1ccc(Br)cc1 (stereo not drawn),24,-0.9,-18,x,1%,-2,-1,-0.3,-0.5,1.0
COc1ccc(NS(=O)(=O)c2ccc(OCC(=O)N3CCN(C)CC3)cc2)cc1Cl,-11,0.6,58*,-4,-1%,5,4,1.5,0.2,-1.5
C=CCc1cc(C=C2C(=O)N(C)C(=O)N(C)C2=O)cc(OCC)c1OCc1ccccc1,4,x,-3,-5,x,x,x,x,-0.5,0.0
O=[N+]([O-])c1ccc(N2CCCC2)cc1N/N=C1\CN2CCC1CC2,7,x,16,-8,u,x,x,x,-0.3,-7.4
COc1ccccc1OCCCn1cc(C(C)=O)c2ccccc21,4,-3.1,-2,37,7%,-12,-7,0.3,-0.5,-2.0
CCOP(=O)(OCC)C(NC(=O)c1ccccc1)=C(Cl)Cl,-7,5.4,-13,-8,x,0,4,-4.4,0.3,0.1
COc1ccc(NC(=O)N2CCC3(CC2)OCCO3)cc1,-10,-0.8,-16,-3,2%,-7,0,-2.3,-3.6,-4.0
CCCCC(=O)N/N=C/c1c(O)n(-c2ccccc2)c(=O)[nH]c1=O,-1,0.1,-11,-2,1%,9,3,0.2,-0.1,-1.2
O=C1NC(=O)N(c2ccc(Cl)cc2)C(=O)/C1=C\c1ccc(Sc2nc3ccccc3[nH]2)o1,-4,-0.8,-28,-5,12µM*,6,6,26,-0.5,4.8
CN(C)C(=O)Oc1ccc(OCc2nc3ccccc3[nH]2)cc1,-13,-1.9,3,58,3%,-22,-27,-4.9,-9.5,-3.2
CC(=O)Nc1cc(C(=O)N2CCC3(CC2)OCCO3)ccc1S(=O)(=O)c1ccc(C)cc1,u,x,1,0,1%,2,7,-1.5,0.6,2.1
CC1(C)OC1COc1c2occc2cc2ccc(=O)oc12 (stereo not drawn),-11,-5.4,4,6,1%,12,9,-5.0,0.7,1.9
c1cnc2c(c1)ccc1ncccc12,2,0.0,9,-4,-1%,4,-1,1.3,1.2,-2.7
Cc1ccccc1NC(=O)COC(=O)c1cc(C)n(C2CC2)c1C,x,-15,x,-12,x,2,-4,8.8,1.1,x
CC1(C)COC(Nc2ccc(Cl)cc2)=N1,-6,x,-13,-1,0%,x,x,x,0.1,-0.8
Cc1ccc(/C=C2\C(=O)NC(=S)N(c3ccc(F)cc3)C2=O)s1,5,-1.2,-25,-11,u,0,12,15,0.5,3.7
COc1ccc(-n2c(Cc3ccccc3)nc3ccccc3c2=O)cc1,36,1.3,17,-7,x,-12,-14,-0.1,-0.9,1.5
Clc1ccccc1CNC1CN2CCC1CC2 (stereo not drawn),18,x,-4,-2,x,x,x,x,0.3,-3.8
Cc1cccc(CN2CCN(CC(=O)N3CCC4(CC3)OCCO4)C2=O)c1,5,x,15,-7,28%,x,x,x,0.9,-1.5
CCCCCCn1c(O)c(C=Nc2ccccc2N2CCOCC2)c(=O)[nH]c1=S,-4,x,-5,6,-8%,x,x,x,-0.4,-3.4
O=C(O)c1cc2ccccc2oc1=O,-2,u,-7,-5,6%,8,14,-0.7,0.5,-1.6
Cc1nc2cc([N+](=O)[O-])ccc2c(=O)n1-c1ccccc1[N+](=O)[O-],6,x,59*,4,x,x,x,x,0.0,1.1
COC(=O)[C@@H]1C[C@@]1(C)[C@@H](NP(=O)(c1ccccc1)c1ccccc1)c1ccccc1,45,-5.2,3,x,1%,-16,-17,-2.4,-0.6,-0.8
CCN(CC)S(=O)(=O)c1cc(NC(=O)C(C)N2CC=C(c3ccccc3)CC2)ccc1C (stereo not drawn),-4,x,52,3,x,x,x,x,0.6,-5.1
CSc1ncc(CN2CCCC(C(=O)c3sccc3C)C2)cn1 (stereo not drawn),-21,3.3,11,-7,x,-2,-6,-1.1,-0.7,u
CC(=O)Nc1cc([As](=O)(O)O)ccc1O,-13,-2.3&-4.1,6,7,6%,x,x,x,1.2,0.7
CN1CCN(c2ccc([N+](=O)[O-])c(Sc3nncn3C)c2)CC1,4,-2.5,-17,0,-1%,12,15,-0.3,0.7,3.4
CC(C)Sc1nnc([C@@H](N)Cc2ccccc2)o1,-1,x,-5,-6,73%,x,x,x,-0.3,10
CCN(CC)C(=O)c1ccc(NC(=O)CCCSc2ccccc2)cc1,-2,2.1,2,-6,1%,-15,-19,-2.1,0.2,-1.6

# (continued)
SMILES,Calb FLC,MLL AF4-AF9 inh,T cruzi inh,Beta apoptosis,Vif A3G,rRNA inh HTS,rRNA inh HTS OD600,rRNA inh HTS RFP,A1 inh,RanGTP-Impb inh
Nc1ccc2ccc3cccc[n+]3c2c1,0,-9.3,17,23,x,106,14,-1.8,0.0,-337
NC(=O)c1cn(C2OC(CO)C(O)C2O)c2ncnc(N)c12 (stereo not drawn),-1,-1.5&-39,57*,x,u,9,18,-2.6,-0.4,2.4
CCN(CC(=O)Nc1ccc(NC(C)=O)cc1)C(=O)CSC(c1ccccc1)c1ccccc1,x,3.4,x,4,-6%,-17,-38,-1.8,-0.3,x
COc1ccc(O)c(C(C)(C)C)c1,-5,-1.0,-4,x,-1%,4,2,1.1,0.2,0.2
Cn1cccc1/C=C1/C(=O)NC(=O)N(Cc2ccc(F)cc2)C1=O,0,-5.5,6,-1,8.8µM*,7,5,2.6,1.2,11
CCOC(=O)CC1=C(C(=O)OCC)C2(C(=O)Nc3ccccc32)C(C#N)=C(N)O1 (stereo not drawn),5,x,-12,-4,-8%,x,x,x,6.5*,-2.9
COC(=O)C1=C(c2ccc(F)cc2OCc2ccccc2)C[C@@H]2CC[C@H]1N2C(=O)N1CCOCC1,x,6.3,x,-7,x,-43,-45,4.6,1.8,x
COc1ccc2cc(C(=O)C3CCCN(C4CCOCC4)C3)ccc2c1 (stereo not drawn),-12,1.5,12,1,u,5,-6,1.3,-0.2,1.1
Clc1ccc(C(c2ccccc2)c2ncc[nH]2)cc1 (stereo not drawn),-6,-7.2,10,1,-2%,-5,-2,-4.4,-0.1,1.5
CCSP1(=S)N=C(N2CCOCC2)C(C#N)=C2CCCN21 (stereo not drawn),x,x,-4,-1,-5%,x,x,x,-0.2,-3.5
C/C(=N\N1CCN(C)CC1)c1c(O)n(Cc2ccccc2)c(=O)[nH]c1=O,0,x,-22,x,x,x,x,x,0.3,-2.4
OC(CNC1CCCCC1)c1ccccc1 (stereo not drawn),-3,x,-7,1,24%,x,x,x,-0.1,0.7
COc1ccc(-n2c(O)c(/C=C3\C=Nc4ccc(Br)cc43)c(=O)[nH]c2=O)c(OC)c1,-10,0.4,-2,-10,4%,1,2,-9.2,-1.2,-3.8
O=C(COC(=O)Cc1ccccc1)Nc1nnc(-c2ccccc2)o1,12,4.7,-5,-2,7%,-12,-10,-1.3,0.5,6.8
Cc1nc2ccc(Cl)cc2c(-c2ccccc2)c1C(=O)O,-16,-4.7,-21,-4,15%,-6,-7,-2.8,-0.9,1.9
CCOC(=O)C1CCN(/C=C2/C(=O)NC(=O)N(c3cccc(C)c3C)C2=O)CC1,-1,-2.1,-10,-3,x,-5,10,-1.0,0.3,0.2
CCOCC(=O)NC1CCSC1=O (stereo not drawn),14,x,-9,-8,1%,x,x,x,0.1,-2.7

# Bioassay records deposited in PubChem BioAssay by several laboratories.
